# TRPML1 inh = blocks the human TRPML1 channel; TRPML1-inducible cells, Ca2+ dye fluorescence, FDSS; active compounds read low; inhibition of EC80 agonist-evoked calcium signal; Q9GZU1; activity change, negative = inhibition, % (no concentration beside the values); actives 0.02% (n = 390,000); AID 624415; in the data active means activity change below about -50%; inconclusive means about -30% to -50%; inactive means above about -30%;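 further: stimulus is agonist 54-4 at its EC80 concentration; on the % scale 0 is the no-effect control and ±100 the full control effect; compound concentration not given in the record; the text of the record puts the active cut at -80%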
#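 TRPML1-DL cells, Tet-induced overnight (~16 h, 37 °C) at 1,500 cells/well, were loaded with Ca8 no-wash dye plus quencher for 45-90 min at room temperature. Compounds were pinned during FDSS kinetic reading; agonist 54-4 at EC80 (4 uM final) then added.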
# gsp agonist = agonists of gsp mutant (McCune-Albright syndrome). gsp mutant cells, cAMP HTRF, 30 min; control for the full effect not named in the record. Potency, µM (doses to about 76.9 µM), inactives show top-dose activation (cAMP increase), actives largely listed as activators. actives 0.13% (n = 340,000); active = well fitted activation curve with a large enough effect; inconclusive = small, poorly fitted or top-dose-only effect, or another doubt; inactive = no such curve, though single readings can be large or run the other way; cell line not stated here;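 further: phosphodiesterase inhibitor Ro 20-1724 added with compounds to block cAMP breakdown; potency means the concentration at half of the fitted maximal effect; nearly all actives have a fitted effect of over 60% in size; about a fifth of the inactives were tested at one dose only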
#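 Cells in DMEM/10% FBS with G418 were pretreated with compounds in DMSO plus […] (300 uM stock) for 30 min at 37C. cAMP was measured by HTRF (cAMP-d2 plus anti-cAMP antibody-K) after 30 min at room temperature.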
# TRPV1 potentiator = potentiators of human vanilloid receptor 1 (TRPV1). Q8NER1. TRPV1-expressing cells, Fluo-8 calcium influx, capsaicin EC20 potentiation; host cell line not named in the record; control for the full effect not named in the record. potentiation, % at 8.33 µM. actives 0.02% (n = 320,000). AID 540277; active means potentiation above 80%; inconclusive means 30% to 80%; inactive means below 30%; further: 0% is about no effect
# Target sequence (Q8NER1 whole entry, looked up): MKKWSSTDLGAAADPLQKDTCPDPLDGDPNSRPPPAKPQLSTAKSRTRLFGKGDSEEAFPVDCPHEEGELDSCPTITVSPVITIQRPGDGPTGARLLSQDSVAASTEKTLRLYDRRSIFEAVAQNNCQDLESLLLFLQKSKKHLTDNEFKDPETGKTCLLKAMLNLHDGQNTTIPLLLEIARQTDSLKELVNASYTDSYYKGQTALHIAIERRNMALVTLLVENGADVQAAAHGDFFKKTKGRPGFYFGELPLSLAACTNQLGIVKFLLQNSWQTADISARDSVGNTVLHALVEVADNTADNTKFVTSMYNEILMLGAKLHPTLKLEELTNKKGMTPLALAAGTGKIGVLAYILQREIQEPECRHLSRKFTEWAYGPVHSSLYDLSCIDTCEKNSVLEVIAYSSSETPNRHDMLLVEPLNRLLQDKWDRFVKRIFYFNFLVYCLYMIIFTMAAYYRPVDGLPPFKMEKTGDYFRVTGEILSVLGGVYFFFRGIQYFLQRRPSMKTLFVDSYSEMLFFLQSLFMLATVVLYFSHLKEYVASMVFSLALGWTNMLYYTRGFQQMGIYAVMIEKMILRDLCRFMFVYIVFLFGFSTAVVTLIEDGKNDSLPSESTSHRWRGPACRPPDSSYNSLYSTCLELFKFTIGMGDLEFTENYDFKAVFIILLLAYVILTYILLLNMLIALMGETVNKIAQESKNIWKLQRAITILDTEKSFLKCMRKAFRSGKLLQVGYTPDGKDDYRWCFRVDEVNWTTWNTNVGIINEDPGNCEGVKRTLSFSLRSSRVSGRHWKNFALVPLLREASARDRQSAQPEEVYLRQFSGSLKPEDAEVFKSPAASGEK
#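 Cells expressing TRPV1 were dye-loaded with Fluo-8 and read kinetically: 10 s baseline, 3 min after compound (agonist portion), then 2 min after EC20 capsaicin (allosteric enhancer portion). Calcium-bound dye fluorescence at 480/520 nm.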
# Menin MLL FP FL = menin-MLL binding inhibition, fluorescein peptide; Fluorescence polarization, fluorescein-MLL peptide displacement from menin; FP activity change, % at 61.4 µM; 290,000 tested, under 10 active; AID 1766; inconclusive = falling polarisation curve, or a change in total fluorescence; inactive = total fluorescence flat and polarisation flat or rising; no compound was filed as active; the % refers to the polarisation; negative = inhibition;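 further: % of control where 0% means no effect; inhibitors lower the polarisation; unlabelled MLL peptide was the positive control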
# gsp antag = antagonists of gsp mutant (McCune-Albright syndrome); actives 0.4% (n = 340,000); gsp-mutant cells, cAMP HTRF, 30 min; control for the full effect not named in the record; Potency, µM (titrated, usually from 76.9 µM), without a hit: at the highest dose activity change, negative = inhibition, hits mostly inhibitors; active = falling curve of any shape with a large fitted effect; inconclusive = falling curve, mostly with a smaller effect; inactive = flat or rising curve; cell line not stated here;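 further: intracellular cAMP measured with PDE inhibitor Ro 20-1724 present during compound exposure; potency means the concentration at half of the fitted maximal effect; on the % scale 0 is the no-effect control and ±100 the full control effect; nearly all actives have a fitted effect of over 65% in size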
#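 G418-selected cells were plated in DMEM/10% FBS for 16-24 h at 37C, then treated with compounds plus the PDE inhibitor […] (300 uM solution added) for 30 min at 37C. Intracellular cAMP was measured by HTRF after 30 min lysis at room temperature.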
# Sfp PPTase inh = blocks B. subtilis Sfp PPTase activity; Biochemical Sfp PPTase activity, qHTS; actives 3.5% (n = 310,000); AID 1490; Potency, µM, for inactives: max response, negative = inhibition, actives largely listed as inhibitors; Q9F4F7; active means well fitted inhibition curve with a large enough effect; inconclusive means small, poorly fitted or top-dose-only effect, or another doubt; inactive means no such curve, though single readings can be large or run the other way;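 further: the enzyme is Sfp with the accession as filed and its product quenches rhodamine fluorescence; potency means the concentration at half of the fitted maximal effect; 0% = enzyme reaction without inhibitor and -100% = no enzyme wells; top concentration of the series not given in the record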
#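 Reaction rates are the 30-min fluorescence difference (ex 525, em 598 nm) in wells containing 15 nM Sfp, 5 uM rhodamine-CoA and 12.5 uM BHQ-2-YbbR at pH 7.6 with 10 mM MgCl2.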
# ClpP mod = qHTS Assay for Activators of ClpP. ATP-dependent Clp protease proteolytic subunit (Bacillus subtilis (strain 168)), P80244. Potency, µM (doses to about 57.5 µM), for inactives: at the top dose activity change, negative = active. purified B. subtilis ClpP, FRET peptide cleavage, 20 min. actives 1.9% (n = 340,000); active = well fitted falling curve with a large enough effect; inconclusive = small, poorly fitted or top-dose-only effect; inactive = no such curve, though single readings can be large or run the other way; further: potency means the concentration at half of the fitted maximal effect; the source files actives as falling curves though it sought activators and does not explain the sign; nearly all actives have a fitted effect of over 65% in size; many hits overshoot -100%
# Target sequence (P80244 whole entry, looked up): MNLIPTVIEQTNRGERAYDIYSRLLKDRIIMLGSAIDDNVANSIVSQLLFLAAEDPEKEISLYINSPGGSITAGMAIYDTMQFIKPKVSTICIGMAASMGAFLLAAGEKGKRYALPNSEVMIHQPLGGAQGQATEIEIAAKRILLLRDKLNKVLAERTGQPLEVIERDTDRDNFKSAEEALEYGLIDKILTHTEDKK
#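 Purified B. subtilis ClpP, 10 microg/mL final in Tris/HCl pH8 with KCl, BSA, glycerol and Tween-20, cleaved an Abz/nitrotyrosine-quenched decapeptide. Fluorescence (ex 320, em 430) was read at 0 and 20 min at room temperature. Delta was normalized to 5.8 microM ADEP and DMSO/no-enzyme controls.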
# Active calls of the source: *; ? = inconclusive; · = not tested or not shown; & = joins results of further samples; [ ] = remark or other dose.
SMILES,TRPML1 inh,gsp agonist,TRPV1 potentiator,Menin MLL FP FL,gsp antag,Sfp PPTase inh,ClpP mod
COc1ccc2c(CC(=O)N[C@@H](Cc3ccccc3)C(=O)O)cc(=O)oc2c1,-8,19%,-8,-0.7,10%,14%,3.4%
CCCn1c(N)c(N(CCOC)C(=O)CSCC(=O)Nc2cccc(C)c2)c(=O)[nH]c1=O,-7,0%[15.4 µM],12,·,2%,·,-6.6%
CCCCNc1nc2ccccc2n1CC(=O)Nc1c(C)cccc1CC,2,17%,-1,5.4,-11%,-1%,-1.0%
COc1ccc(C(=O)N2CCOC2CNC(=O)C(=O)NCCc2ccccc2OC)cc1 (stereo not drawn),-24,3%[15.4 µM],-3,·,6%,22%,6.2%
O=C(c1cc2ccccc2oc1=O)N1CCN(S(=O)(=O)c2ccccc2)CC1,-2,-5%,-1,-6.6,-2%,9%,-7.8%
COc1ccc(S(=O)(=O)N2CCN(C(=O)CC3CC4CCC3C4)CC2)cc1 (stereo not drawn),74,-2%,-13,·,-2%,·,-3.8%
Cc1cc(C)cc(NC(=O)c2ccc(NC3=NC4CS(=O)(=O)CC4S3)cc2)c1 (stereo not drawn),-13,?,4,1.5,-3%,15%,-0.4%
O=C(CSc1ccc(Br)cc1)N1CCN(S(=O)(=O)c2ccccc2)CC1,9,0%,-12,-2.4,-25%,-7%,-1.5%
COc1cccc(N2CCN(S(=O)(=O)c3cc4c(cc3C)N(C)CCO4)CC2)c1,1,-8%,22,3.5,-7%,-3%,?
CCOC(=O)C1(Cc2cccc(OC)c2)CCCN(C(=O)c2cc(C)on2)C1 (stereo not drawn),17,?,-23,·,5%,22%,-0.5%
O=C(CC1SC(N2CCOCC2)=NC1=O)Nc1ccc(Cl)cc1 (stereo not drawn),-15,8%[15.4 µM],7,·,18%,·,·
OCC(CO)(CO)n1cnnn1,20,?,-5,4.7,10%,2%,-0.8%
O=C(C[n+]1ccc(C(=O)NCc2ccccc2)cc1)c1ccc2c(c1)OCCO2,-4,-9%[15.4 µM],0,-5.0,-18%,-3%,-4.6%
Cc1ccc(NC(=O)C(C)SCC(=O)Nc2ccc(F)cc2)cc1S(=O)(=O)N1CCOCC1 (stereo not drawn),-22,-2%[15.4 µM],-15,·,-9%,·,·
NC(=O)NC1CCCc2c1[nH]c1ccc(Cl)cc21 (stereo not drawn),9,-7%,8,0.9,3%,24%,-1.7%
COc1cccc(CNC(=O)COC(=O)c2ccc(C(=O)c3ccccc3)cc2)c1,-24,7%,-32,·,3%,·,-2.5%
Cc1ccc(NC(=O)c2cc(C)nc3ccccc23)c(Br)c1,-6,-31%[15.4 µM],-10,9.6,2%,2%,-3.5%
Cc1cccn2c(CN3CCNC(=O)CC3)c(C(=O)N(C)CCc3ccccc3)nc12,12,4%[15.4 µM],-1,0.3,6%,16%,-0.6%
CCCCN(C)C/C(O)=C(\C#N)c1nc(-c2ccccc2)cs1,-1,-24%,20,9.6,-8%,-23%,-4.6%
Cc1ccc(-c2nnc(CSc3nnc(COc4ccccc4)n3-c3ccc(C)cc3)o2)cc1,-19,12%,4,-1.0,-4%,2%,-2.0%
Cc1cccc(-c2cc3nc4c(c(NCc5ccco5)n3n2)CCCC4)c1,6,-35%,-31,3.0,-25%,50µM*,28µM*
Cc1cc(C(=O)CCC(=O)Nc2cccc(F)c2)c(C)s1,-3,-38%[inhibitor],·,·,·,·,-1.6%
O/N=C1/CCCCc2sccc21,34,0%,27,-0.4,8%,-15%,-2.3%
Cc1ccc(S(=O)(=O)/C(C#N)=C/c2c(N3CCN(C)CC3)nc3ccccn3c2=O)cc1,0,28%,2,-0.4,-13%,7%,-5.8%

# Among those listed so far, these contain an aryl thioether with sulfur outside any ring.
SMILES,TRPML1 inh,gsp agonist,TRPV1 potentiator,Menin MLL FP FL,gsp antag,Sfp PPTase inh,ClpP mod
O=C(CSc1ccc(Br)cc1)N1CCN(S(=O)(=O)c2ccccc2)CC1,9,0%,-12,-2.4,-25%,-7%,-1.5%
Cc1ccc(-c2nnc(CSc3nnc(COc4ccccc4)n3-c3ccc(C)cc3)o2)cc1,-19,12%,4,-1.0,-4%,2%,-2.0%

# Next part:
SMILES,TRPML1 inh,gsp agonist,TRPV1 potentiator,Menin MLL FP FL,gsp antag,Sfp PPTase inh,ClpP mod
Cc1cccn2c(=O)c3cc(C#N)c(=N)n(CCN4CCOCC4)c3nc12,9,-11%,-2,0.8,8%,6%,16µM*
Cc1cc(C)n(CCNS(=O)(=O)c2ccc(C)c(C)c2)n1,6,-39%[inhibitor],1,-1.1,-3%,15%,·
CCCN(CCC)S(=O)(=O)c1ccc(Cl)c([N+](=O)[O-])c1,-6,-3%[15.4 µM],1,-2.4,-19%,6%,·
CC1CCCCN1C(=O)c1cc2c(=O)n3ccccc3nc2s1 (stereo not drawn),35,?,-1,5.2,9%,10%,·
CC[C@@]1(C(=O)OC)N[C@H](CN(C)C(=O)c2ccc(F)cc2)[C@@H]2C(=O)N(Cc3ccccc3)C(=O)[C@@H]21,4,·,·,·,0%,·,0.4%
CCC(C)NS(=O)(=O)c1ccc(NC(=O)CNCc2cccs2)cc1 (stereo not drawn),-1,19%,·,·,14%,·,·
Cc1c(NC(=O)CSC(=S)N2CCCC2)c(=O)n(-c2ccccc2)n1C,-5,-15%,25,·,11%,·,1.5%
CCOC(=O)c1sc(NC(=O)CN(CC)CC)c(C(=O)OCC)c1C,-8,2%,14,-0.6,23%,27%,0.2%
FC(F)(F)c1cnc(Sc2nnc(-c3cccs3)n2CC2CCCO2)c(Cl)c1 (stereo not drawn),7,-56%[inhibitor],0,4.3,-12%,0%,0.3%
Cc1ccc(C)c(S(=O)(=O)Nc2ccc(S(=O)(=O)Nc3ncccn3)cc2)c1,-1,22%,-5,·,-5%,·,-0.6%
O=C(CCl)N(c1ccc(Cl)cc1)c1c[nH]c2ccccc12,-1,-18%,-1,8.0,-9%,-7%,-1.1%
CCOc1ccc(N(CC(=O)NCC2CCCO2)S(=O)(=O)c2ccc(OC)c(OC)c2)cc1 (stereo not drawn),-12,-3%,3,-0.9,2%,19%,-0.4%

# A stretch from the list above:
SMILES,TRPML1 inh,gsp agonist,TRPV1 potentiator,Menin MLL FP FL,gsp antag,Sfp PPTase inh,ClpP mod
Cc1cccn2c(=O)c3cc(C#N)c(=N)n(CCN4CCOCC4)c3nc12,9,-11%,-2,0.8,8%,6%,16µM*
Cc1cc(C)n(CCNS(=O)(=O)c2ccc(C)c(C)c2)n1,6,-39%[inhibitor],1,-1.1,-3%,15%,·
CCCN(CCC)S(=O)(=O)c1ccc(Cl)c([N+](=O)[O-])c1,-6,-3%[15.4 µM],1,-2.4,-19%,6%,·

# Next part:
SMILES,TRPML1 inh,gsp agonist,TRPV1 potentiator,Menin MLL FP FL,gsp antag,Sfp PPTase inh,ClpP mod
COc1cc(OC)cc(C(=O)NCC(=O)OCC(=O)c2ccc3c(c2)-c2ccccc2C3)c1,22,-89%[inhibitor],-1,0.6,-21%,-9%,-6.5%
Cn1cc(Cl)c(-c2n[nH]c(=S)n2-c2ccc(F)cc2)n1,-9,?,0,2.8,22%,-2%,0.5%
C=CCc1cc(/C=N\NC(=O)CSc2nnc(CCCc3ccc(OC)c(C)c3)o2)cc(OC)c1O,-10,4%,-9,0.0,-15%,7%,-2.1%
COc1ccc(-n2nnc3c(SCC(=O)NCc4ccco4)ncnc32)cc1,0,13%,-3,-0.2,-16%,-3%,-10%
Cc1nc2ccccc2c(=O)n1CC(=O)N1CCOCC1,-5,-59%[inhibitor],-7,3.6,2%,17%,0.0%
O=C(NCCN1CCN(Cc2ccccc2Cl)CC1)Nc1ccccc1,10,-9%,0,-0.8,11%,24%,1.7%
COc1ccc2cc(C(=O)N3CCN(C)CC3)[nH]c2c1,·,-37%[inhibitor],0,1.4,9%,8%,-21%
O=C(N/N=C/c1sc(=O)[nH]c1-[n+]1ccccc1)c1ccccc1[O-],-2,-30%[15.4 µM],19,?,-4%,?,·
C/C(=N\NC(=O)c1ccc(O)cc1)c1cccc(NC(=O)c2ccc(Cl)cc2)c1,10,-1%[15.4 µM],·,·,?,·,·
CCOc1ccc(Nc2nc(Cc3nnc(SCC(=O)N(CC)CC)n3C)cs2)cc1,25,21%,-12,2.2,-2%,32µM*,-6.9%
COc1ccc(N2CCN(c3nc(NCCO)nc(N4CCOCC4)n3)CC2)cc1,18,5%,-4,3.0,-5%,9%,-6.2%
CCOC(=O)C1=NN(C(C)=O)C2C(=O)N(CC)C(=O)C12 (stereo not drawn),13,-26%,2,1.8,2%,6%,-2.7%
Cc1ccc(C(=O)NN=C2CCCCCC2)s1,15,29%,-11,2.5,3%,10%,-1.4%
CCOC(=O)c1ccc(-n2cc(C(=O)c3cccnc3)nn2)cc1,-3,17%,-7,1.9,16%,9%,1.1%
CCOC(=O)CCCc1sc(N)nc1-c1[nH]c(=O)[nH]c1C,-6,14%,-2,-9.1,3%,22µM*,-4.1%
C=CCN1C(=O)/C(=C/c2ccc(N(C)C)cc2)S/C1=N\c1nnc(CC)s1,·,·,9,?,·,7%,·
Cc1ccc(S(=O)(=O)N2C(=O)/C(=C3\SC(=S)NC3=O)c3ccccc32)cc1,·,·,7,-2.5,·,2%,·
COc1cccc(CC2(CO)CCCN(Cc3ccccc3Cl)C2)c1 (stereo not drawn),-4,-19%,-12,10,-8%,0%,-1.2%
COc1cccc(/C=N/Nc2nn3cnnc3c3ccccc23)c1,-2,-5%,18,-0.9,3%,56µM*,-2.5%
C[C@H]1CN([C@@H](C)CO)C(=O)CCCn2cc(nn2)CO[C@@H]1CN(C)C(=O)Nc1ccc(C(F)(F)F)cc1,-12,-33%[inhibitor],·,·,·,·,0.7%
Oc1ccccc1/C=N/n1cnnc1,32,-1%,25,2.0,-8%,-1%,3.2%
CCC1(CC)C(=O)C2=C3C1[C@H](C(=O)OC)C=C(C(=O)OC)C[C@H]3[C@H]1C(=O)N(Cc3ccccc3)C(=O)[C@H]1[C@H]2C (stereo partly drawn),-5&1,?,·,8.1,-6%,-7%,-0.6%
